# Rango dissoc inh: prevents RanGTP from dissociating the Rango-importin beta complex; Biochemical FRET Rango-importin beta, RanGTP-induced dissociation; Potency, µM (titrated, usually from 46.1 µM), for inactives: at the top dose activity change, negative = inhibition; 340,000 compounds, 0.071% hits; AID 540253; active means falling FRET ratio curve, often poorly fitted, with flat reads before Ran was added; inconclusive means other falling curves, or compound fluorescence or quenching; inactive means flat or rising ratio curve;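 also: potency is read from the fitted curve at half-maximal effect; % of control where 0% means no effect; nearly all actives have a fitted effect of over 45% in size; -100% = wells without RanGTP and RCC1; the record marks most hits as doubtful in a second field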
#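 Two FRET readings bracket the reaction: one 5 min after compound meets Rango–importin beta, another 45 min after RanGTP-RCC1 (0.6 uM Ran, 0.2 uM RCC1, 2 mM GTP) is added. Only the second defines inhibition.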
# miR-21 reporter: raises the signal of a miR-21 reporter; 340,000 tested, under 10 active; Potency, µM (highest dose often 38.3 µM), inactives show at the top dose reporter change, positive = more light; HeLa miR-21 FLuc reporter, luciferase, 48 h; active = well fitted rising curve with a large enough effect; inconclusive = small, poorly fitted or top-dose-only effect; inactive = no such curve, though single readings can be large or run the other way;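 also: % of control where 0% means no effect; miR-21 action dims this reporter so a rising signal means less miR-21 action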
#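 HeLa cells stably expressing CMV-driven firefly luciferase with a downstream miR-21 binding sequence, endogenously expressing miR-21, were treated with titrations (up to about 40uM final) for 48 hours at 37 degree Celsius. Luciferase luminescence was read after lysis.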
# GLA inh pH 4.5: inhibitors of human alpha-galactosidase A at pH 4.5 | P06280 | purified enzyme, 4-MU-alpha-Gal fluorescence, pH 4.5 | activity change, negative = inhibition, % at 105 µM | 230,000 tested, under 10 active | AID 1467; inconclusive = small, poorly fitted or top-dose-only inhibition, or a rising curve; inactive = flat fitted curve, though single readings scatter; no compound was filed as active;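 also: 0% = full activity with enzyme and -100% = basal without enzyme; dose as in the result columns while the protocol names 77 µM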
# Rango complex inh: inhibitors of Rango-importin beta complex formation. Q14974. Rango CFP/YFP FRET sensor + importin beta, 45 min. Potency, µM (top dose mostly 92.2 µM), without a hit: at the highest dose inhibition of complex formation. 340,000 compounds, 0.031% hits. AID 540263; active = rising FRET ratio curve, often small or poorly fitted; inconclusive = mostly compound fluorescence or quenching in the first reads; inactive = flat curves in all reads;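 also: potency is read from the fitted curve at half-maximal effect; 0% = DMSO wells and 100% = buffer wells lacking importin beta; nearly all actives have a fitted effect of over 15% in size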
# Target sequence (Q14974 whole entry, looked up): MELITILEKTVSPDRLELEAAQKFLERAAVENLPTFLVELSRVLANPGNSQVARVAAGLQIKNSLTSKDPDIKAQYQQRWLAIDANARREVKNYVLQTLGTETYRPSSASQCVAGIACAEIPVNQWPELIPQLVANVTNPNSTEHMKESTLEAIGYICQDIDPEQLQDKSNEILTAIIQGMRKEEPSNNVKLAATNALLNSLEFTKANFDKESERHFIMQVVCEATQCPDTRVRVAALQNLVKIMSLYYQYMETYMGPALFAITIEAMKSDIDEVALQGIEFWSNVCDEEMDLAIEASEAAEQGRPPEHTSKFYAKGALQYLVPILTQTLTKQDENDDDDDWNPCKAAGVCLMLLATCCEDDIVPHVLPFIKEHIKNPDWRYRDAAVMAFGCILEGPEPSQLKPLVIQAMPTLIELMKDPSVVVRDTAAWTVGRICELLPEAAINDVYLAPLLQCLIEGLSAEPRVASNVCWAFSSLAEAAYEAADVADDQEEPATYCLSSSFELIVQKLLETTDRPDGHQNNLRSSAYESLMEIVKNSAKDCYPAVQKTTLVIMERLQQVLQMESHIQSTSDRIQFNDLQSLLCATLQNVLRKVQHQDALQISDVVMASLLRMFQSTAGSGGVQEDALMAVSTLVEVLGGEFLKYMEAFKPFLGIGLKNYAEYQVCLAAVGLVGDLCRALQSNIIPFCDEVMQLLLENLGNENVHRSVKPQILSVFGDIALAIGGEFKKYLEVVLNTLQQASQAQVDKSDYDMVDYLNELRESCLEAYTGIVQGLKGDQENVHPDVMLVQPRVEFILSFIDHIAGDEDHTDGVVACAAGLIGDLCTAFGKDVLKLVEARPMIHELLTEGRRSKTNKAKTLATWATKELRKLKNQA
#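 FRET biosensor (snurportin 1 IBB flanked by EYFP and cerulean), 50 nM, with compound 5 min, then 0.125 microM importin beta in PBS, 1 mM DTT, 0.02% Tween-20, 0.1% BSA. CFP/YFP ratio read after 45 min at room temperature; pre-read flags interference.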
# Starred values were filed as active, the others as inactive; ? = inconclusive; / = not tested or not shown; & = joins results of further samples; [ ] = dose if it differs, or a comment. These rows are one share of the data. The share of hits here may be higher or lower than overall.
# Results follow in this order: Rango dissoc inh, miR-21 reporter, GLA inh pH 4.5, Rango complex inh
> CCOc1ccc(NC(=O)NNC(=O)c2ccc(CC)s2)cc1
  4%, 0%, 5, 1.3%
> COc1cccc(N2CCN(C3CC(=O)N(c4ccc(F)c(Cl)c4)C3=O)CC2)c1 (stereo unspecified)
  -12%, -9%, -14, 6.5%
> CCOC(=O)c1[nH]cnc1C(=O)Nc1ccc(Cl)cc1
  -19%, -6%, 6, -4.4%
> COC(=O)Nc1ccc2c(c1)OCO2
  -20%, -25%, 0, -0.5%
> CCOc1ccc(C(C)NC(=O)c2ccc3c(c2)NC(=O)C(C)S3)cc1OCC (stereo unspecified)
  -10%, /, /, -5.1%
> Cc1ccc(CN2CCc3[nH]c(=O)[nH]c(=O)c3C2)cc1
  -12%, -8%, 4, -4.8%
> COc1cc(NC(=O)c2cccnc2SC)cc(OC)c1
  3%, -3%, 7, -0.4%
> COc1ccc(CNC(=O)c2cccc(N3CCCC3=O)c2)cc1
  -3%, 2%, 1, -0.9%
> CCCNC(=O)c1ccc(N2CCC3(CC2)CC(c2ccccc2)=NO3)c(NC(=O)c2ccco2)c1
  4%, 16%, /, ?
> CCc1nnc(N2C(=O)c3ccc(Oc4ccc([N+](=O)[O-])cc4)cc3C2=O)s1
  3%, -9%, -1, 1.5%
> CCOCCCNC(=O)CN1C(=O)CSc2ccc(S(=O)(=O)N3CCOCC3)cc21
  1%, -1%, /, -1.9%
> CCn1c(=S)sc2c(=O)n(-c3ccccc3)c(SC)nc21
  -5%, 0%, 4, 4.7%
> Cc1ccc(S(=O)(=O)N2CCC(C(=O)N3CCN(c4ccccn4)CC3)CC2)cc1
  -4%, 0%, /, 0.2%
> COc1ccc(C(=O)CSc2nnc(Cn3cnc4ccccc43)o2)cc1
  -6%, 24%, 7, -0.1%
> O=C(NCCN1CCOCC1)C(=O)NCc1ccco1
  -3%, -1%, -5, 1.1%
> CN1CCN(c2ccc(NC(=O)COc3ccc4ccccc4c3)cc2)CC1
  4%, -4%, /, -2.1%
> COc1cccc(C(=O)N2CCCC(c3nc(-c4cccs4)no3)C2)c1 (stereo unspecified)
  2%, -9%, -6, 0.4%
> O=C(NCc1cccnc1)c1ccc(NS(=O)(=O)c2cccc([N+](=O)[O-])c2)cc1
  1%, /, /, 0.3%
> Clc1ccc(-n2ncc3c(N4CCCCCC4)ncnc32)cc1
  -12%, 12%, 4, -3.9%
> O=C(NCc1ccccc1C(F)(F)F)C12CN(Cc3ccccc3)CC1C(c1ccc([N+](=O)[O-])cc1)=NO2 (stereo unspecified)
  -4%, 3%, -18, 1.2%
> NC(=O)NC(Cc1ccccc1)C(=O)NCC1(N2CCCCC2)CCCCC1 (stereo unspecified)
  -3%, -3%, 5, 0.0%
> Cc1c(NC(=O)COC(=O)C2(c3ccccc3F)CCCC2)c(=O)n(-c2ccccc2)n1C
  9%, -3%, 2, 2.4%
> O=C(Nc1ccc2c(c1)OCO2)C1CCN(S(=O)(=O)c2cccc3cccnc23)CC1
  5%, -3%, 11, 0.3%
> CCC(C)NC(=O)c1c(F)c(F)c(F)c(F)c1F (stereo unspecified)
  5%, -5%[7.66 µM], -15, 1.4%
> S=c1[nH]c2ccc(Cl)cc2[nH]1
  -10%, -4%, -2, 0.1%
> CC1CN(CCOc2ccccc2C(C)C)CC(C)O1 (stereo unspecified)
  13%, 1%, /, 4.8%
> CN(CC(=O)Nc1ccc(F)cc1)C(=O)CN1C(=O)NC2(CCCCC2)C1=O
  -23%, /, /, -0.4%
> CCSc1nc2c(c(=O)n1CC)SC(C)C2 (stereo unspecified)
  -8%, -8%, -14, 0.1%
> O=C(C=Cc1ccccc1)CC(c1ccccc1)N1CCOCC1 (stereo unspecified)
  2%, /, /, -0.1%
> CC(=O)Nc1cccc(/C(C)=N/NC(=O)c2ccc(NS(=O)(=O)c3cccs3)cc2)c1
  16%, -15%, -3, 5.2%

# Reprinted from the part before: 2 compounds, then new ones.
# Results follow in this order: Rango dissoc inh, miR-21 reporter, GLA inh pH 4.5, Rango complex inh
> O=C(C=Cc1ccccc1)CC(c1ccccc1)N1CCOCC1 (stereo unspecified)
  2%, /, /, -0.1%
> CC(=O)Nc1cccc(/C(C)=N/NC(=O)c2ccc(NS(=O)(=O)c3cccs3)cc2)c1
  16%, -15%, -3, 5.2%
> Cc1ccc(C)c(OCc2nnc(SCC(=O)NCc3ccc4c(c3)OCO4)o2)c1
  -1%, 4%, 3[21.1 µM], -0.6%
> CCC(Oc1ccc(Cl)cc1)C(=O)N1CC(=O)Nc2ccccc21 (stereo unspecified)
  -4%, 0%, /, 0.1%
> CC1(C)OC2OC(COC(=O)c3ccccc3)C3OC(C)(C)OC3C2O1 (stereo unspecified)
  -3%, -22%, 1, 0.1%
> Cc1ccc(NC(=O)Nc2ccc3c(c2)CCC3)cc1C
  10%, -21%, /, 1.6%
> O=C(Nc1ncc2c(n1)CC(c1ccco1)CC2=O)c1ccco1 (stereo unspecified)
  2%, -11%, -10, -0.1%
> O=C(CSc1nnc(-c2cccnc2)n1Cc1ccco1)N1c2ccccc2Sc2ccccc21
  -10%, 11%, 1, ?
> O=C(O)c1ccccc1-c1ccccc1C(=O)Nc1ccccc1-c1ccccc1
  -5%, 1%, /, 0.4%
> COc1cccc(CNC(=O)CN(C)S(=O)(=O)c2cnc[nH]2)c1
  -13%, -3%, 0, 1.8%
> CCc1ccnc(NS(=O)(=O)c2ccc3c(c2)CCO3)c1
  16%, -3%, 5, -0.2%
> CS(=O)(=O)Nc1ccc(C(=O)Nc2ccc(S(=O)(=O)N3CCCCC3)cc2)cc1
  -9%, 11%, /, -3.2%
> O=C(NC1=NCCS1)c1cc(-c2ccc(F)cc2)nc2ccccc12
  2%, -18%, 7, 4.0%
> O=C(Nc1ccccc1F)c1ccccc1C(=O)Nc1ccccc1F
  -4%, /, /, 1.4%
> COC(=O)CSc1nnc(COc2cccc3ccccc23)o1
  3%, 0%, /, -1.1%
> C[C@H](CO)N1C[C@H](C)[C@@H](CN(C)C(=O)Nc2ccc(C(F)(F)F)cc2)Oc2ccc(NC(=O)Cn3cnnn3)cc2C1=O
  2%, /, /, 0.0%
> COc1ccc2c(=O)c3c(=O)n(-c4ccccc4)c(-c4ccco4)nc3oc2c1
  7%, -22%, 9, 5.1%
> COc1ccc(CN(C(=O)c2cc3ccccc3oc2=O)C2CCCC2)cc1
  10%, 1%, -6, -0.1%
> c1ccc(-c2ccncc2)nc1
  8%, /, /, -4.3%
> COc1ccc(Nc2cc(Nc3ccccc3)ncn2)cc1
  -3%, -56%, /, 1.5%
> O=C(/C=C/c1ccccc1)NCCC1=CCCCC1
  -18%, -67%, -7, 1.5%
> COc1cc2c(cc1OC)-c1cc(NC3CCCCC3)nc(=O)n1CC2
  -1%, -47%, 12, -2.2%
> Cc1cc(NC(=O)CSc2nc(Cc3ccc(O)cc3)c(C)[nH]2)no1
  -2%, -1%, /, -3.0%
> N#CC1=C2SCCN2C(=O)C(C#N)C12CCCCC2 (stereo unspecified)
  10%, -14%, -8, 0.8%
> CCn1ncc(Cl)c1C(=O)Nc1ccncc1
  5%, -3%, 0, -2.2%
> Cc1nc2ccccc2c(=O)n1-c1ccc(NS(=O)(=O)c2ccc(F)cc2F)cc1
  -7%, /, /, ?
> COc1ccc2c(c1OC)C(=O)N(C(C)C(=O)O)C2=O (stereo unspecified)
  -6%, 0%, 9, -0.6%
> CCN(CC)C(=O)c1[nH]cnc1C(=O)NCc1ccccc1
  -19%, /, /, -0.7%
> CC(=O)Nc1ccc(S(=O)(=O)NCCCc2ccccc2)cc1
  -4%, 4%, /, -5.3%
> CCOc1ccnc2c1c(=O)n(Cc1cc(OC)cc(OC)c1)c(=O)n2C
  -10%, 2%, /, 1.0%
> Cc1ccc(F)c(CNC(=O)C2CCC(=O)N(CCCN3CCCC3=O)C2)c1F (stereo unspecified)
  -11%, -4%, /, -2.6%
> CC(C)c1ccc(O)c(C(=O)c2cnn(-c3ccccc3)c2)c1
  1%, /, /, 0.8%
> COc1cccc(-c2nc3cc(C)ccc3o2)c1
  9%, -26%, 0, -1.6%
> Cc1noc(C)c1CSc1nnc(-c2cc(Cl)ccc2Cl)n1N
  21%, -5%, -8, 5.3%
> COc1ccc(CNC(=O)CN2C(=O)CC(c3ccccc3)=Nc3ccccc32)cc1
  8%, -3%, -15, -1.7%
> CC(C)(C)c1nnc(NC(=S)Nc2ccccc2)s1
  -4%, -53%, 4, 3.4%
> O=C(O)c1cnn(-c2ccccc2)c1-c1ccccc1
  -1%, 0%, 2, -0.4%
> CCn1c(SCc2ccc(C)cc2)nnc1-c1cnccn1
  16%, -36%, 13, 1.4%
> c1ccc(Cn2nnc3c(Nc4ccc5c(c4)OCO5)nc(C4CC4)nc32)cc1
  -10%, -1%, 26, 0.4%
> Cc1cc(C)cc(-n2c(SCC(=O)NCc3ccc4c(c3)OCO4)nc3ccccc3c2=O)c1
  7%, -1%, 1, -1.0%
> Cc1cc(C)nc(SCc2nnc(SCc3ccc([N+](=O)[O-])cc3)n2Cc2ccco2)n1
  -3%, 7%, 6, 3.9%
> CCOc1ccc(N(CC(=O)NC(C)CC)S(C)(=O)=O)cc1 (stereo unspecified)
  10%, -1%, -10, 0.3%
> CN1CCN(c2nc(NCc3ccco3)nc(N)c2[N+](=O)[O-])CC1
  1%, 2%, -6, 0.0%
> N=c1ccn(Cc2cccc(Cl)c2)cc1
  1%, ?, -5, 1.2%
> CCCc1cc(C(=O)Cc2nc3ccccc3s2)c(O)cc1O
  ?, -40%, 11, ?
> CC(C)NC(=O)Nc1cccc2c1O[C@H](CN(C)C(=O)NC(C)C)[C@@H](C)CN([C@H](C)CO)C2=O
  -8%, /, /, -0.1%
> Cc1ccccc1N1CCN(C(=O)CN2C(=O)c3ccccc3C2=O)CC1
  11%, -15%, 3, -2.4%
> O=C(NCc1ccco1)c1ccc(CNc2c(N3CCCCC3)c(=O)c2=O)cc1
  -3%, -9%, 1, -0.2%
> CCN(CC)C(=O)c1cnn(-c2ccccc2)c1NC(=O)c1cccc(F)c1
  -4%, -1%, 5, -1.9%
> COc1ccc(-c2cc(C(=O)Nc3c(C)n(C)n(-c4ccccc4)c3=O)c3ccccc3n2)c(OC)c1
  -6%, 12%, /, 1.4%
> COc1ccc(OC)c(-c2csc(N(C)C(=O)Cc3ccccc3)n2)c1
  -2%, -4%, -2[21.1 µM], -4.7%
> Cc1cccc(CCNc2nc3ccc(C)cc3n3cnnc23)c1
  -9%, -70%, /, -0.3%
> CC1(c2ccccc2)NC(=O)N(CC(=O)NCc2ccc3c(c2)OCO3)C1=O (stereo unspecified)
  -6%, 0%, /, -0.7%
> COc1ccc(NC(=O)Cc2ccccc2)cc1
  -5%, -47%, -1, -3.9%
> Cc1ccc(C)c(-n2c(-c3cccnc3)n[nH]c2=S)c1
  6%, 1%, 5, ?
> CCc1cc2c(SCC(=O)Nc3ccc(Cl)cn3)ncnc2s1
  -8%, -1%, 8, -3.9%
> CC(=O)N1CCN(CC(=O)Nc2ccc([N+](=O)[O-])cc2Br)CC1
  -5%, 0%, 0, -5.9%
> O=C(CCN1C(=O)/C(=C/c2ccccc2Cl)SC1=S)NNC(=O)c1cccnc1
  -4%, 1%, -10, 2.6%
> CO/N=C(\C(=O)N[C@@H]1C(=O)N2C(C(=O)O)=C(COC(C)=O)CS[C@H]12)c1csc(N)n1 (stereo in doubt)
  -6%&10%&-8%, -5%, 0, 4.7%&1.2%&-1.1%
> OC(COc1ccc2c(c1)OCO2)CN1CCCC1 (stereo unspecified)
  0%, 3%, -11, 3.5%
> Cc1nn(C)c(C)c1/C=C1/SC(=S)NC1=O
  10%, 1%, -8, 0.2%
> CC(NC(=S)NCCCN1CCOCC1)C1CC2CCC1C2 (stereo unspecified)
  -7%, -5%, -4, -4.5%
> CC(Sc1nc2cc(Cl)ccc2s1)C(=O)Nc1cccc(S(=O)(=O)N2CCOCC2)c1 (stereo unspecified)
  18%, 14%, -6, -4.0%
> CCOCCCNC(=O)C1CCN(S(=O)(=O)CC)CC1
  2%, -1%, -4, 7.4%

# Source: PubChem BioAssay (National Center for Advancing Translational Sciences (NCATS))
